High-throughput results as filed in PubChem BioAssay.
PD-1 reverse act: reversal of PD-1 mediated T-cell inhibition. primary human CD4 T cells, PD-L1 beads, CellTiter-Glo 96 h. activation, % (no concentration beside the values). 29,000 tested, under 10 active. AID 2316;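 active = replicate mean of 50% or more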;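 also: 0% = median vehicle wells and 100% = positive control; 100 nL library stock added to about 50 µL; numbers are from one replicate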
Hedgehog inh: Sonic Hedgehog pathway inhibition. inhibition, % (no concentration beside the values). Shh-LIGHT2 Gli-luciferase reporter, 30 h. hit rate 2.1% among 22,000. AID 2313;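 active = replicate mean of 65% or more; inconclusive = mean lower but half the replicates past it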;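 also: pathway switched on by Shh-conditioned medium diluted 1 in 25 in low serum; 100 nL library stock added to about 40 µL; 0% = median of neutral wells and 100% = positive control level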
MITF inh: MITF inhibition. TRPM1 promoter luciferase, luminescence, 24 h. inhibition, % (no concentration beside the values). hit rate 0.28% among 37,000. AID 2240;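 active = most replicates at 85% or more, or half of them and the mean; inconclusive = half reach 85% but not the mean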;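 also: human melanocyte line stably carrying TRPM1 promoter luciferase reporter; 0% = vehicle wells and 100% = a positive control; the first replicate is given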
YB-1 expression: YB-1 expression inhibition; delta delta Cp (YB-1 minus CDIP) (concentration not given with the values); hit rate 0.37% among 30,000; U2OS, qRT-PCR YB-1 vs CDIP delta delta Cp, 16 h; active compounds read high; zero = DMSO, each unit about twofold;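 active = delta delta Cp rounded down to an integer at or above 3, about 3 SD of DMSO wells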;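 also: higher means less YB-1 transcript or more CDIP transcript relative to DMSO; stock transfer was 100 nL into about 100 µL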
Active calls of the source: *; ? = inconclusive; . = not tested or not shown. A portion of the library; count on the stated rates, not on these rows.

Every second line gives: PD-1 reverse act	Hedgehog inh	MITF inh	YB-1 expression
Cc1noc(C)c1NC(=O)Nc1cccc2c1O[C@@H](CN(C)C(=O)Nc1cccc3ccccc13)[C@H](C)CN([C@H](C)CO)C2=O
 : 1.2	6	10	0.0051
Cc1cccc(S(=O)(=O)NC(C(=O)O)C(C)C)c1 (stereo not drawn)
 : 1.6	.	-12	.
COC(=O)c1ccc(NC(=O)CSc2nnc(-c3cccs3)n2-c2ccc(OC)cc2)cc1
 : -3.8	.	25	.
COc1ccc(NC(=O)N(C)C[C@@H]2OCCCC[C@@H](C)Oc3ccc(NC(=O)Nc4ccc5c(c4)OCO5)cc3C(=O)N([C@H](C)CO)C[C@@H]2C)cc1
 : -0.7	2	-10	0.025
COc1cccc(S(=O)(=O)NCc2ccc(C(=O)Nc3ccc(Br)cc3F)cc2)c1
 : 1.2	.	1	.
C[C@H]1CN([C@@H](C)CO)C(=O)c2cccc(NC(=O)c3ccncc3)c2O[C@H]1CN(C)Cc1ccncc1
 : 0.7	-29	-17	-0.43
Cc1ccc(S(=O)(=O)N(C)C[C@H]2Oc3ccc(NC(=O)Cc4cn(C)c5ccccc45)cc3CC(=O)N([C@H](C)CO)C[C@H]2C)cc1
 : -0.5	-7	27	-0.088
O=C1N=c2ccccc2=C1c1sc(NS(=O)(=O)c2ccccc2)nc1O
 : 0.3	11	-8	-0.18
C[C@H](CO)N1C[C@H](C)[C@H](CN(C)S(=O)(=O)c2ccc(F)cc2)Oc2ccc(NC(=O)Nc3ccc(F)cc3)cc2CC1=O
 : -2.0	-104	33	0.76
C[C@@H]1CN([C@@H](C)CO)C(=O)c2cc(NS(=O)(=O)c3ccc(F)cc3)ccc2O[C@H]1CN(C)C(=O)Nc1ccc(F)cc1
 : -1.5	.	-6	0.52
Cc1noc(C)c1NC(=O)N(C)C[C@@H]1OCCCC[C@@H](C)Oc2ccc(NC(=O)Nc3ccc(C(F)(F)F)cc3)cc2C(=O)N([C@H](C)CO)C[C@@H]1C
 : 0.7	-25	-16	-0.26
COc1ccc(S(=O)(=O)N(C)C[C@H]2Oc3ccc(NC(=O)CCC(F)(F)F)cc3C(=O)N([C@@H](C)CO)C[C@H]2C)cc1
 : -0.8	.	-20	0.043
O=C1c2ccccc2NC(c2ccccc2)N1N=C1CCCCCC1 (stereo not drawn)
 : 0.0	-44	-19	-0.94
CSc1nnc(-c2ccccc2N)c(=O)[nH]1
 : 1.1	-11	17	-0.47
O=C(O)c1cc(N(Cc2ccccc2O)Cc2ccccc2O)ccc1O
 : 1.6	35	9	2.7

New compounds follow
Every second line gives: PD-1 reverse act	Hedgehog inh	MITF inh	YB-1 expression
C[C@@H]1CCCCO[C@H](CN(C)C(=O)c2ccccc2)[C@@H](C)CN([C@H](C)CO)C(=O)c2cc(NC(=O)c3ccccc3)ccc2O1
 : -1.6	0	0	0.17
CC1(C)CC(C)(c2ccccc2)c2cc(SC#N)ccc2N1 (stereo not drawn)
 : -4.8	108*	46	0.17
C[N+]1(C)CCCC(OC(=O)C(O)(c2ccccc2)c2ccccc2)C1 (stereo not drawn)
 : 5.4	-55	-4	8.9*
Cc1cc(C)c(Cn2nc(C(C)(C)C)cc2C(=O)NN2CCOCC2)c(C)c1
 : 4.1	-27	2	-0.48
C[C@H]1CN([C@@H](C)CO)C(=O)Cc2cc(NC(=O)Nc3ccccc3)ccc2O[C@H]1CN(C)C(=O)Nc1ccc2c(c1)OCO2
 : -0.1	?	-13	0.29
COc1ccc(NC(=O)N(C)C[C@@H]2Oc3ccc(NS(C)(=O)=O)cc3CC(=O)N([C@@H](C)CO)C[C@@H]2C)cc1
 : 1.1	37	-12	-0.25
C[C@@H]1CN([C@H](C)CO)C(=O)c2cccc(NC(=O)Nc3ccc(F)cc3)c2O[C@@H]1CN(C)Cc1ccc(C(=O)O)cc1
 : 3.0	23	-4	0.06
O=C(Nc1ccccc1Cl)c1cc2ccccc2cc1O
 : -4.4	.	36	-0.35
C[C@@H]1CN([C@@H](C)CO)C(=O)c2cc(NC(=O)CCC(F)(F)F)ccc2O[C@H]1CN(C)Cc1ccc(Cl)c(Cl)c1
 : 0.6	-6	-9	0.077
Cc1ccc(S(=O)(=O)Nc2ccc3c(c2)C(=O)N([C@@H](C)CO)C[C@H](C)[C@@H](CN(C)Cc2ccc(Cl)c(Cl)c2)O3)cc1
 : -1.1	-1	6	-0.34
CN(C)CCN(C)Cc1cc([N+](=O)[O-])ccc1O
 : 1.3	.	2	.
CC(=O)c1ccc(-n2c(CCC(=O)O)ccc2-c2ccc(Br)cc2)cc1
 : -1.5	.	-2	.
O=C(CSc1nc(O)cc(=O)[nH]1)Nc1cc(Cl)cc(Cl)c1
 : 1.8	.	-6	.
CC(=O)OC[C@@]12C(=O)C[C@@H](C)[C@]3(C[C@@H](c4ccoc4)OC3=O)[C@H]1CC[C@H](OC(C)=O)[C@]21CO1
 : -0.1	-44	-16	-0.21
CCOc1ccc(NC(=O)Cn2cc(C(=O)OC)c3ccccc32)cc1
 : 0.0	.	4	.

Not a retest: an excerpt of the list.
Every second line gives: PD-1 reverse act	Hedgehog inh	MITF inh	YB-1 expression
C[C@@H]1CCCCO[C@H](CN(C)C(=O)c2ccccc2)[C@@H](C)CN([C@H](C)CO)C(=O)c2cc(NC(=O)c3ccccc3)ccc2O1
 : -1.6	0	0	0.17
CC1(C)CC(C)(c2ccccc2)c2cc(SC#N)ccc2N1 (stereo not drawn)
 : -4.8	108*	46	0.17
C[N+]1(C)CCCC(OC(=O)C(O)(c2ccccc2)c2ccccc2)C1 (stereo not drawn)
 : 5.4	-55	-4	8.9*
Cc1cc(C)c(Cn2nc(C(C)(C)C)cc2C(=O)NN2CCOCC2)c(C)c1
 : 4.1	-27	2	-0.48

Remaining list, next part
Every second line gives: PD-1 reverse act	Hedgehog inh	MITF inh	YB-1 expression
C[C@@H]1CN([C@@H](C)CO)C(=O)c2cccc(NS(=O)(=O)c3ccc(F)cc3)c2O[C@@H]1CN(C)Cc1ccccc1
 : -1.4	31	-10	-0.017
O=C(Cc1ccccc1)NC1CCN(C(=O)C2CCC2)CC1
 : 2.1	-61	-9	-0.76
COc1ccc(NC(=O)CN(C)S(=O)(=O)c2ccc(C)cc2)cc1
 : -1.5	.	10	.
S=c1nc(-c2ccccc2)n(-c2ccccc2)[nH]1
 : 0.9	1	4	-0.1
Cc1c(Br)c([N+](=O)[O-])nn1CC(=O)Nc1ccc(C#N)cc1
 : 1.0	.	8	.
CNC[C@@H]1Oc2ccc(NC(=O)Nc3ccc(F)cc3)cc2CC(=O)N([C@H](C)CO)C[C@@H]1C
 : 1.9	-14	-6	-0.21
COc1ccccc1NC(=S)NCc1cccnc1
 : 2.5	.	-8	.
COc1ccc(S(=O)(=O)N(C)C[C@@H]2Oc3c(NS(=O)(=O)c4ccc(C)cc4)cccc3C(=O)N([C@@H](C)CO)C[C@H]2C)cc1
 : 2.0	-99	-8	0.29
O=C(N=S1CCN(c2ncc(C(F)(F)F)cc2Cl)CC1)c1ccccc1
 : -0.1	41	-1	0.94
C=C(CO)C1Cc2cc(C(C)=O)ccc2O1 (stereo not drawn)
 : 2.5	-12	-19	0.028
O=C(CSc1nnc(-c2cccnc2)o1)c1ccc(Br)cc1
 : 0.3	.	-26	.
C[C@H]1CN([C@@H](C)CO)C(=O)c2cccc(NS(=O)(=O)c3cccs3)c2O[C@H]1CN(C)Cc1ccc(-c2ccccc2)cc1
 : 2.6	5	-4	0.39
C[C@@H]1CN([C@@H](C)CO)C(=O)c2cccc(NC(=O)Nc3ccc4c(c3)OCO4)c2O[C@@H]1CN(C)Cc1ccc(Cl)c(Cl)c1
 : -0.7	20	-22	-0.5
CNC[C@@H]1Oc2c(NC(=O)c3ccc(-c4nccs4)cc3)cccc2C(=O)N([C@H](C)CO)C[C@H]1C
 : 1.3	-24	-7	-0.05
C[C@H](CO)N1C[C@H](C)[C@H](CN(C)Cc2ccccc2)Oc2ccc(NC(=O)CCCCCC(=O)Nc3ccccc3N)cc2C1=O
 : -0.3	.	13	-0.038

The listing continues.
Every second line gives: PD-1 reverse act	Hedgehog inh	MITF inh	YB-1 expression
C[C@@H]1CN([C@H](C)CO)C(=O)c2cc(NC(=O)CCC(F)(F)F)ccc2O[C@@H]1CN(C)CC1CC1
 : 1.4	-1	9	-0.33
C[C@@H]1CN([C@H](C)CO)C(=O)c2cc(NS(=O)(=O)c3cccs3)ccc2O[C@@H]1CN(C)S(C)(=O)=O
 : 1.1	.	-3	-0.13
Cn1c(SCC(=O)Nc2sc3c(c2C#N)CCCC3)nnc1-c1ccccc1
 : -1.0	.	-7	.
C[C@@H]1CN([C@H](C)CO)C(=O)Cc2cc(NC(=O)c3ccncc3)ccc2O[C@@H]1CN(C)Cc1ccc(C(=O)Nc2ccccc2N)cc1
 : 0.2	.	-12	-0.18
Cc1noc(C)c1NC(=O)N(C)C[C@@H]1Oc2ccc(NS(=O)(=O)c3ccccc3)cc2C(=O)N([C@@H](C)CO)C[C@@H]1C
 : 0.1	.	-10	-0.43
Cc1oc2c(c1C(=O)N1CCC(C)CC1)C(=O)c1ccccc1C2=O
 : -6.4	59	85*	0.42
CSc1cccc(NC(=O)CSc2nnc(-c3ccc(Br)cc3)o2)c1
 : 1.8	.	-24	.
O=[N+]([O-])c1ccccc1OCCCCSc1ncccn1
 : 1.5	.	-57	.
O=C(O)CC(c1ccc(F)cc1)c1ccco1 (stereo not drawn)
 : 1.4	.	1	.
COc1ccc(CN(C)C[C@@H]2Oc3ccc(NC(=O)Cc4ccccc4)cc3CC(=O)N([C@@H](C)CO)C[C@@H]2C)cc1
 : -0.7	.	-3	-0.47
CCOc1cccc(-c2nnc(SCC(=O)Nc3c(C)cccc3C)n2C)c1
 : 0.4	.	-3	.
C[C@H]1CN([C@@H](C)CO)C(=O)Cc2cc(NS(C)(=O)=O)ccc2O[C@H]1CN(C)C(=O)Nc1cccc2ccccc12
 : 0.6	-2	0	0.025
COc1ccc(NC(=O)Nc2ccc3c(c2)C(=O)N([C@@H](C)CO)C[C@@H](C)[C@H](CN(C)S(=O)(=O)c2ccc(Cl)cc2)O3)cc1
 : -1.2	.	-15	0.35
C[C@H]1CN([C@@H](C)CO)C(=O)c2cccc(NS(=O)(=O)c3ccccc3)c2O[C@H]1CN(C)C(=O)Nc1ccc(C(F)(F)F)cc1
 : .	-6	5	-0.63
C[C@@H]1CN([C@H](C)CO)C(=O)c2cccc(NC(=O)Nc3ccc(F)cc3)c2O[C@H]1CN(C)S(=O)(=O)c1ccc(F)cc1
 : -0.6	-14	-1	-0.27

New compounds follow.
Every second line gives: PD-1 reverse act	Hedgehog inh	MITF inh	YB-1 expression
Cc1ccc(S(=O)(=O)Nc2ccc3c(c2)CC(=O)N([C@@H](C)CO)C[C@H](C)[C@H](CN(C)Cc2ccncc2)O3)cc1
 : 0.7	9	-9	0.025
COc1ccc2oc(=O)c(C(=O)NCc3ccco3)cc2c1
 : -4.5	.	-29	.
C[C@@H]1CN([C@@H](C)CO)C(=O)c2cc(NS(=O)(=O)c3cn(C)cn3)ccc2O[C@H]1CN(C)Cc1ccc(Cl)c(Cl)c1
 : 0.7	.	0	0.35
CCc1ccc(-n2c(SCC(=O)c3ccc(Cl)cc3)nnc2-c2ccncc2)cc1
 : -4.7	.	10	.
C[C@H](CO)N1C[C@H](C)[C@@H](CN(C)C(=O)Nc2cccc3ccccc23)Oc2c(NC(=O)C3CCCCC3)cccc2C1=O
 : 1.1	16	9	0.08
CC(=O)N1CCN(c2nc3ccc(Cl)cc3s2)CC1
 : 0.6	-42	3	0.05
CC(=O)Oc1ccc(C(=O)NCc2nc(-c3ccccc3)no2)cc1
 : 0.9	.	4	.
CC(=O)Nc1ccc(NC(=O)CSc2nccc(=O)[nH]2)cc1
 : 2.4	.	6	.
C[C@@H]1CN([C@@H](C)CO)C(=O)c2cccc(NS(=O)(=O)c3ccc(F)cc3)c2O[C@@H]1CN(C)C(=O)Nc1cccc2ccccc12
 : -0.1	43	1	-0.024
C[C@@H]1CN([C@@H](C)CO)C(=O)c2cc(NS(=O)(=O)c3ccccc3)ccc2O[C@@H]1CN(C)Cc1ccc(C(F)(F)F)cc1
 : 3.0	9	19	-0.44
C[C@@H]1CN([C@H](C)CO)C(=O)c2cc(NS(=O)(=O)c3ccccc3)ccc2O[C@@H]1CN(C)C(=O)Nc1ccc2c(c1)OCO2
 : -0.9	.	-3	0.068
Cc1cc(=O)[nH]c(SCCCOc2ccc(C(C)C)c(C)c2)n1
 : -0.5	.	25	.
O=C(O)CCN1C(=O)C2C3c4ccccc4C(c4ccccc43)C2C1=O (stereo not drawn)
 : -0.9	-4	16	-0.044
C[C@@H]1CN([C@H](C)CO)C(=O)c2cc(NC(=O)CCC(F)(F)F)ccc2O[C@H]1CN(C)C
 : 0.3	.	-12	-0.096
C[C@H](CO)N1C[C@H](C)[C@H](CN(C)Cc2ccc(Cl)c(Cl)c2)Oc2c(NC(=O)Nc3cccc4ccccc34)cccc2C1=O
 : -4.6	-12	46	-0.95
Cc1ccc(S(=O)(=O)Nc2ccc3c(c2)CC(=O)N([C@@H](C)CO)C[C@@H](C)[C@@H](CN(C)C(=O)Nc2ccc4c(c2)OCO4)O3)cc1
 : 2.1	-12	-3	0.14
C[C@@H]1CN([C@H](C)CO)C(=O)Cc2cc(NS(=O)(=O)c3ccc(Cl)cc3)ccc2O[C@@H]1CN(C)Cc1ccc(Cl)c(Cl)c1
 : -3.4	26	-3	-3.7
